A1 inhib: blocks A1 activity; MEF A1-2A-BIM cells, caspase-Glo luminescence, 3 h; percent of clofoctol signal, DMSO as zero; caspase activation, % (concentration not given with the values); 0.51% of 21,000 active;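 active = most replicate scores above 10, or exactly half above 10 with mean activity above 10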;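 also: effector caspase 3 and 7 activity cleaving a DEVD luciferin substrate; 50 nL library stock added to about 30 µL; numbers are from one replicate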
BJeLR viability: lowers viability of BJeLR cells. AID 2275. 0.64% of 30,000 active. BJeLR fibroblasts viability, CellTiterGlo ATP luminescence, 48 h; HRASV12, hTERT and SV40 LT/ST transformed. viability loss activity score, % (no concentration beside the values); in the data active = viability loss activity score above about 50%; about a fifth of its hits are not listed in these tables;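 also: higher score means fewer live cells and less ATP luminescence; stock transfer was 50 or 100 nL into about 30 µL; 0% = vehicle wells and 100% = a reference killing control; one replicate is shown; the record names a cut of 85%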
* hit, by the source's call; · = no result given. Only part of the results is shown, so the mix of outcomes need not match the whole.

molecule	A1 inhib	BJeLR viability
CCN1CCCC1CNC(=O)C1c2ccccc2C(=O)N(CCOC)C1c1ccc(F)cc1 (stereo not given)	·	3.5
O=C(NC1CC1)c1ccc2c(c1)N(Cc1ccccc1)C(=O)c1ccccc1S2	-0.2	7.6
CCCc1cc(=O)oc2c(C)c(OC(C)C(=O)O)ccc12 (stereo not given)	-0.1	-1.2
Cc1nc2cc(-c3ccccc3)nn2c(C)c1CC(=O)NC1CCCC1	-0.5	-1.6
COC(=O)c1cn(NC(=O)CCC2CCCC2)c(=O)c2ccccc12	·	-3.6
COc1ccc(S(=O)(=O)Nc2cccc3c2O[C@@H](CN(C)C(=O)NC2CCCCC2)[C@@H](C)CN([C@@H](C)CO)C3=O)cc1	·	2.8
C[C@@H]1CN([C@H](C)CO)C(=O)c2cc(NS(=O)(=O)c3cccs3)ccc2O[C@@H]1CN(C)Cc1ccc(C(F)(F)F)cc1	0.0	0.6
Cc1noc(-c2ccccc2)c1NC(=O)N1CCN(C(c2ccccc2)c2ccccc2)CC1	0.7	1.0
C[C@@H]1CN([C@@H](C)CO)C(=O)c2cccc(N(C)C)c2O[C@@H]1CN(C)Cc1ccncc1	·	4.0
C[C@H]1CN([C@@H](C)CO)C(=O)c2cccc(NS(=O)(=O)c3cccs3)c2O[C@H]1CN(C)Cc1ccc(Oc2ccccc2)cc1	·	0.6
C[C@@H]1CN([C@H](C)CO)C(=O)c2cc(NS(=O)(=O)c3ccccc3)ccc2O[C@@H]1CN(C)Cc1ccc(-c2ccccc2)cc1	0.1	-0.9
COc1ccc(/C=C/C(=O)Nc2nc3ccc(S(C)(=O)=O)cc3s2)cc1Br	1.1	1.2
C[C@@H]1CN([C@@H](C)CO)C(=O)c2cc(NC(=O)Cc3ccccc3)ccc2O[C@@H]1CN(C)CC1CCCCC1	0.4	-2.0
C[C@@H]1CN([C@@H](C)CO)C(=O)c2cc(NC(=O)Nc3ccc4c(c3)OCO4)ccc2O[C@@H]1CN(C)Cc1ccc(C(F)(F)F)cc1	-0.4	-2.5
CCn1c(O)c(C=Nc2ccccc2)oc1=S	-3.2	4.8
COc1ccc(/C=N/c2oc(C)c(C)c2C#N)c(OC)c1	0.2	-0.6
CC(C)NC(=O)N(C)C[C@@H]1Oc2ccc(NC(=O)Nc3cccc4ccccc34)cc2C(=O)N([C@H](C)CO)C[C@@H]1C	1.2	1.3
COC(=O)c1cc(NS(=O)(=O)Cc2ccccc2)cc(C(=O)OC)c1	0.1	0.6
C[C@@H]1CN([C@H](C)CO)C(=O)c2cccc(NC(=O)C3CCCCC3)c2O[C@H]1CN(C)C(=O)Nc1ccccc1	·	-4.8
O=S(=O)(/N=C(/Nc1cc(N2CCOCC2)ncn1)c1ccccc1)c1ccccc1	·	0.1
C[C@H]1CN([C@@H](C)CO)C(=O)c2cccc(NS(=O)(=O)c3ccc(Cl)cc3)c2O[C@@H]1CN(C)C(=O)Nc1cccc2ccccc12	·	-1.8
N#Cc1c(/N=C/N2CCCC2)sc2c1CCCCC2	-5.4	-2.0
C[C@H]1CN([C@@H](C)CO)C(=O)c2cc(NC(=O)Nc3ccc(C(F)(F)F)cc3)ccc2O[C@H]1CN(C)S(C)(=O)=O	0.7	-4.9
N=c1ncn(CC(O)CO)c2nc(Br)[nH]c12 (stereo not given)	0.4	-0.8
COc1ccc(NC(=O)Nc2ccc3c(c2)C(=O)N([C@H](C)CO)C[C@H](C)[C@H](CN(C)CC2CCCCC2)O3)cc1	1.6	0.9
CCn1cc(C(=O)N2CCN(C)CC2)c(=O)c2cc(S(=O)(=O)N(C)C)ccc21	·	-3.3
C=CCc1c(C)[nH]c(=S)[nH]c1=O	-0.5	2.0
Cc1noc(C)c1S(=O)(=O)N(C)C[C@@H]1Oc2c(NC(=O)c3cnccn3)cccc2C(=O)N([C@@H](C)CO)C[C@@H]1C	·	-2.1
CNC[C@H]1Oc2c(NC(=O)Nc3ccc(C(F)(F)F)cc3)cccc2C(=O)N([C@H](C)CO)C[C@@H]1C	·	-2.5
CCOC(=O)N1CCC(Nc2nc(OC)nc(OC)n2)CC1	·	-9.2
C[C@H]1CN([C@@H](C)CO)C(=O)c2cccc(NC(=O)c3ccc(-c4nccs4)cc3)c2O[C@H]1CN(C)Cc1ccc(C(F)(F)F)cc1	·	1.9
C[C@H](CO)N1C[C@H](C)[C@@H](CN(C)C(=O)Nc2ccc(F)cc2)Oc2ccc(NS(=O)(=O)c3ccc(F)cc3)cc2C1=O	-0.5	1.1
CCc1ccc(N2C(=O)CN(CC(=O)OC)C2=S)cc1	·	-3.2
C[C@H](CO)N1C[C@H](C)[C@@H](CN(C)S(=O)(=O)c2ccc(Cl)cc2)Oc2c(NC(=O)C3CCOCC3)cccc2C1=O	·	6.8
CCN(C(=O)c1ccc2c(c1)CCO2)c1cccc2ccccc12	0.6	-1.9
CCOC(=O)c1ccc(CC2SC(=Nc3ccc(CC)cc3)NC2=O)cc1 (stereo not given)	·	1.9
Cc1noc(C)c1NC(=O)Nc1cccc2c1O[C@H](CN(C)C(=O)Nc1c(C)noc1C)[C@@H](C)CN([C@@H](C)CO)C2=O	·	-1.5
O=C(Oc1ccc(OC(=O)c2ccco2)cc1)c1ccco1	1.1	-7.0
C[C@H](CO)N1C[C@H](C)[C@@H](CN(C)CC2CC2)Oc2c(NC(=O)c3ccc(-c4nccs4)cc3)cccc2C1=O	·	-4.7
COC(=O)C1(Cc2ccc(O)c(CC=C(C)C)c2)OC(=O)C(OC)=C1c1ccc(O)c(O)c1 (stereo not given)	-0.6	1.4

Two of the compounds above, with values under each structure.
Below each SMILES – A1 inhib | BJeLR viability
CCn1cc(C(=O)N2CCN(C)CC2)c(=O)c2cc(S(=O)(=O)N(C)C)ccc21
→ · | -3.3
CNC[C@H]1Oc2c(NC(=O)Nc3ccc(C(F)(F)F)cc3)cccc2C(=O)N([C@H](C)CO)C[C@@H]1C
→ · | -2.5

Remaining list, next part
molecule	A1 inhib	BJeLR viability
COC(=O)c1ccc(CSc2nc(-c3ccc(OC)cc3)ns2)o1	-2.7	2.7
Cc1ccc(C(=O)c2ccc(Oc3ccccc3)cc2)cc1	0.3	2.9
COc1ccc(S(=O)(=O)Nc2ccc3c(c2)C(=O)N([C@H](C)CO)C[C@@H](C)[C@@H](CN(C)S(=O)(=O)c2ccccc2)O3)cc1	-0.3	1.0
O=C(CSc1nc2c(c(=O)n1Cc1ccccc1)SCC2)NC1CCCC1	0.7	-0.9
C[C@H]1CN([C@@H](C)CO)C(=O)c2cccc(NC(=O)Nc3ccc(F)cc3)c2O[C@H]1CN(C)C	·	1.7
CCC(CC)NC(=O)C1c2ccccc2Oc2ccccc21	0.4	-0.9
Cc1noc(C)c1NC(=O)Nc1cccc2c1O[C@@H](CN(C)Cc1ccc(-c3ccccc3)cc1)[C@@H](C)CN([C@H](C)CO)C2=O	·	2.2
COc1ccc2[nH]c3c(=O)n(CCCCC(=O)NCc4ccccc4)c(=S)[nH]c3c2c1	-0.1	-0.7
C[C@H]1CN([C@@H](C)CO)C(=O)c2cccc(NC(=O)C3CC3)c2O[C@@H]1CN(C)C(=O)Nc1ccccc1	·	0.1
Cc1ccccc1S(=O)(=O)/N=C(\N)c1ccccc1	0.3	-0.3
Cc1ccc(C(=O)Nc2sc3c(c2C(=O)O)CCCC3)o1	-6.5	4.7
NC(=O)CSc1nc2c(c(C(F)(F)F)n1)CCc1ccccc1-2	0.2	-3.0
COc1ccc2cc3c(NC(=O)Cc4cccc(C(F)(F)F)c4)n[nH]c3nc2c1	-1.2	-8.4
COc1ccc(-c2nnc(Nc3cccc(C(F)(F)F)c3)c3ccccc23)cc1	0.4	-1.1
C[C@@H]1CN([C@@H](C)CO)C(=O)c2cc(NC(=O)C3CC3)ccc2O[C@@H]1CN(C)C(=O)NC1CCCCC1	0.3	-1.4
COc1cccc2c1NC1CC(C)CCC1C2(C)C (stereo not given)	0.4	-3.1
C[C@H](CO)N1C[C@H](C)[C@H](CN(C)Cc2ccc(C(=O)O)cc2)Oc2ccc(NC(=O)C3CC3)cc2C1=O	0.1	-1.0
C[C@@H]1CN([C@@H](C)CO)C(=O)c2cc(NC(=O)Nc3ccc(F)cc3)ccc2O[C@H]1CN(C)C	0.6	-0.7
Cc1ccc(S(=O)(=O)Nc2ccc3c(c2)C(=O)N([C@H](C)CO)C[C@@H](C)[C@@H](CN(C)Cc2ccc(-c4ccccc4)cc2)O3)cc1	0.7	2.6
Cc1cccc(N2CCN(C(=O)CCC(=O)O)CC2)c1C	·	-2.6

Reprinted from the part before: 2 entries, followed by the next part.
molecule	A1 inhib	BJeLR viability
Cc1ccc(S(=O)(=O)Nc2ccc3c(c2)C(=O)N([C@H](C)CO)C[C@@H](C)[C@@H](CN(C)Cc2ccc(-c4ccccc4)cc2)O3)cc1	0.7	2.6
Cc1cccc(N2CCN(C(=O)CCC(=O)O)CC2)c1C	·	-2.6
CCCNC(=O)c1ccc2c(c1)N(Cc1ccc(F)cc1)CCS2	-1.0	2.0
Cc1ccc2cc(CCNC(=O)C34CC5CC(CC(C5)C3)C4)c(=O)[nH]c2c1C	·	-3.6
Cc1noc(C)c1NC(=O)N(C)C[C@H]1Oc2c(NS(=O)(=O)c3ccc(Cl)cc3)cccc2C(=O)N([C@@H](C)CO)C[C@H]1C	·	-4.5
CC1(C)Cc2c(sc3ncn4nc(-c5ccccc5)nc4c23)C(C)(C)N1	-0.3	-6.2
CC(C)NC(=O)CSCc1cnn(-c2ccccc2)c1-n1cccc1	0.8	0.5
Cc1ccc(-c2ccc(=O)n(CC(=O)NCCN3CCCCC3C)n2)cc1 (stereo not given)	0.9	-4.2
O=C(Nc1ccccc1C(F)(F)F)c1cnccn1	0.6	0.1
COc1ccc(S(=O)(=O)N(C)C[C@@H]2Oc3ccc(NS(=O)(=O)c4cccs4)cc3C(=O)N([C@H](C)CO)C[C@@H]2C)cc1	0.6	-3.6
CCC(C)NC(=O)c1cn(CC)c2ccc(S(=O)(=O)N3CCCCCC3)cc2c1=O (stereo not given)	·	3.6
C[C@@H]1CN([C@@H](C)CO)C(=O)c2cc(NC(=O)Nc3ccc4c(c3)OCO4)ccc2O[C@H]1CN(C)Cc1ccc(Oc2ccccc2)cc1	0.0	0.5
O=C(Nc1ccc(OC(F)(F)F)cc1)N1CCC(O)CC1	·	0.7
COc1ccc(NC(=O)N(C)C[C@@H]2Oc3ccc(NC(=O)Nc4ccc(C(F)(F)F)cc4)cc3C(=O)N([C@@H](C)CO)C[C@H]2C)cc1	-0.1	3.4
O=C(C1CCC1)N1CCc2cc(S(=O)(=O)NC3CCCC3)ccc21	·	-4.9
Nc1ccc(OCC(O)C[n+]2ccccc2)cc1 (stereo not given)	0.4	1.0
COc1ccc(S(=O)(=O)Nc2cccc3c2O[C@@H](CN(C)Cc2ccc(C(=O)O)cc2)[C@@H](C)CN([C@@H](C)CO)C3=O)cc1	·	0.5
C[C@H](CO)N1C[C@H](C)[C@@H](CN(C)S(C)(=O)=O)Oc2ccc(NS(=O)(=O)c3cn(C)cn3)cc2C1=O	-0.2	1.8
C[C@@H]1CN([C@H](C)CO)C(=O)c2cccc(NS(=O)(=O)c3ccccc3)c2O[C@H]1CN(C)C	·	-0.6
Cc1noc(C)c1NC(=O)Nc1cccc2c1O[C@H](CN(C)C(=O)Nc1ccccc1)[C@@H](C)CN([C@@H](C)CO)C2=O	·	3.9
C[C@H]1CN([C@@H](C)CO)C(=O)c2cccc(N(C)C)c2O[C@@H]1CN(C)Cc1ccc(C(=O)O)cc1	·	-4.5
CC(=O)N(/N=C1\Sc2ccccc2C1=O)c1ccccc1	-5.7	-3.0
C[C@H]1CN([C@@H](C)CO)C(=O)c2cccc(NS(C)(=O)=O)c2O[C@H]1CN(C)Cc1ccc(Oc2ccccc2)cc1	·	2.0
CCN(CCS(=O)(=O)c1ccc(Cl)cc1)C(=O)Nc1ccc(Cl)cc1	0.2	-1.0
CC(NC(=O)c1ccc2c(c1)OCO2)c1ccccc1 (stereo not given)	-0.3	-2.8
C[C@H](CO)N1C[C@H](C)[C@@H](CN(C)S(=O)(=O)c2cn(C)cn2)Oc2ccc(NS(C)(=O)=O)cc2C1=O	-0.6	3.1
C[C@@H]1CN([C@H](C)CO)C(=O)c2cc(NS(=O)(=O)c3ccccc3)ccc2O[C@H]1CN(C)Cc1ccc2c(c1)OCO2	0.7	15
O=C(Nc1ccccc1)Nc1nc(=O)c2ccccc2s1	-1.5	2.5
Cc1ccc(S(=O)(=O)N(C)C[C@@H]2Oc3ccc(NC(=O)Nc4ccc5c(c4)OCO5)cc3C(=O)N([C@@H](C)CO)C[C@@H]2C)cc1	2.5	7.3
C[C@H]1CN([C@@H](C)CO)C(=O)c2cccc(NC(=O)Nc3ccccc3)c2O[C@H]1CN(C)S(C)(=O)=O	·	-5.2
O=C(O)c1cc(=O)c2c(Cl)cc(Cl)cc2[nH]1	1.2	-2.7
C[C@@H]1CN([C@H](C)CO)C(=O)c2cccc(NC(=O)C3CCOCC3)c2O[C@H]1CN(C)CC1CCCCC1	·	-2.6
C[C@@H]1CN([C@H](C)CO)C(=O)c2cc(NC(=O)Nc3ccc(C(F)(F)F)cc3)ccc2O[C@H]1CN(C)C(=O)Nc1cccc2ccccc12	0.4	-0.1

Compound activity deposited in PubChem BioAssay by Broad Institute.
